Screens (PubChem BioAssay)
Rango dissoc inh: qHTS Assay for Inhibitors of RanGTP induced Rango (Ran-regulated importin-beta cargo) - Importin beta complex dissociation; Snurportin-1 (Homo sapiens) + GTP-binding nuclear protein Ran (Homo sapiens) + Importin …; Biochemical FRET Rango-importin beta, RanGTP-induced dissociation; Potency, µM (doses to about 46.1 µM), for the others: at the top dose activity change, negative = inhibition; 0.071% of 340,000 active; active means falling FRET ratio curve, often poorly fitted, with flat reads before Ran was added; inconclusive means other falling curves, or compound fluorescence or quenching; inactive means flat or rising ratio curve;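 also: potency is read from the fitted curve at half-maximal effect; % of control where 0% means no effect; nearly all actives have a fitted effect of over 45% in size; -100% = wells without RanGTP and RCC1; the record marks most hits as doubtful in a second field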
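Rango FRET biosensor (snurportin-1 IBB flanked by N-terminal EYFP and C-terminal CFP10) at 0.1 uM, with 0.25 uM importin beta in PBS, 1mM DTT, 0.02% Tween-20, 0.1% BSA. 0.6 uM Ran, 2mM GTP and 0.2 uM RCC1 were then added for 45 min at room temperature. Inhibition read as loss of FRET rise.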
miR-21 reporter: qHTS Assay for Modulators of miRNAs and/orActivators of miR-21 | 340,000 tested, under 10 active | AID 2288, 2010 | Potency, µM (top dose mostly 38.3 µM), without a hit: top-dose reporter change, positive = more light | HeLa miR-21 FLuc reporter, luciferase, 48 h; active = well fitted rising curve with a large enough effect; inconclusive = small, poorly fitted or top-dose-only effect; inactive = no such curve, though single readings can be large or run the other way;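 also: % of control where 0% means no effect; miR-21 action dims this reporter so a rising signal means less miR-21 action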
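HeLa miR-21-FLuc reporter line, endogenous miR-21; 2000 cells/well in DMEM/10% FBS; compound titration up to ~40uM final, 48 h, 37 degree Celsius; luciferase detection reagent, 15 min lysis, CCD luminescence.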
GLA inh pH 4.5: qHTS Assay for Inhibitors of Human alpha-Galactosidase at pH 4.5; Alpha-galactosidase A (Homo sapiens), P06280; activity change, negative = inhibition, % at 105 µM; purified enzyme, 4-MU-alpha-Gal fluorescence, pH 4.5; 230,000 tested, under 10 active; inconclusive = small, poorly fitted or top-dose-only inhibition, or a rising curve; inactive = flat fitted curve, though single readings scatter; no compound was filed as active;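 also: 0% = full activity with enzyme and -100% = basal without enzyme; dose as in the result columns while the protocol names 77 µM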
Rango complex inh: qHTS Assay for Inhibitors of Rango (Ran-regulated importin-beta cargo) - Importin beta complex formation. Rango CFP/YFP FRET sensor + importin beta, 45 min. Importin subunit beta-1 (Homo sapiens), Q14974. 0.031% of 340,000 active. AID 540263, 2011. Potency, µM (doses to about 92.2 µM), without a hit: top-dose inhibition of complex formation; active = rising FRET ratio curve, often small or poorly fitted; inconclusive = mostly compound fluorescence or quenching in the first reads; inactive = flat curves in all reads;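 also: potency is read from the fitted curve at half-maximal effect; 0% = DMSO wells and 100% = buffer wells lacking importin beta; nearly all actives have a fitted effect of over 15% in size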
Target sequence (Q14974 whole entry, looked up): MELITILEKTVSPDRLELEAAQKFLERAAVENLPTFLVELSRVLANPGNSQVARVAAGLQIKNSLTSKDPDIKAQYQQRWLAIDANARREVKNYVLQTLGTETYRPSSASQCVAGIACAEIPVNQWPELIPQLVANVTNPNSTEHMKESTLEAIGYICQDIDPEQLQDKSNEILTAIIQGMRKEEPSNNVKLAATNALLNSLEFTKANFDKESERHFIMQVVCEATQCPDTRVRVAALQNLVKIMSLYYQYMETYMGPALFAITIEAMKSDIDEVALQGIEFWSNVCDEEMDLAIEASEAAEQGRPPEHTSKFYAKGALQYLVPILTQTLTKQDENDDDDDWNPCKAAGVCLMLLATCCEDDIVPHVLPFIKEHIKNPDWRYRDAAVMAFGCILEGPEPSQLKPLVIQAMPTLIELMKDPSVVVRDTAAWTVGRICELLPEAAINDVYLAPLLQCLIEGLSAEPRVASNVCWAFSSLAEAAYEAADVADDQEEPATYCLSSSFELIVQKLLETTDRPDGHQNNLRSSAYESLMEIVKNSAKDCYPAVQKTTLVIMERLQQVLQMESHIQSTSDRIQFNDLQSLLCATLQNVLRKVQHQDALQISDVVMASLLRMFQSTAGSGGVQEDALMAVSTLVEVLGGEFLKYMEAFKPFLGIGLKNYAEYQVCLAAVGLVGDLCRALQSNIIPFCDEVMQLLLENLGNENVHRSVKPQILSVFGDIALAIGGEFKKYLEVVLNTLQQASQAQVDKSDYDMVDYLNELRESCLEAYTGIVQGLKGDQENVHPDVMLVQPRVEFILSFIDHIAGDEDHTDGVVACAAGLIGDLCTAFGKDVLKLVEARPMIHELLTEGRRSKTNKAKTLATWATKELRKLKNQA
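FRET biosensor (snurportin 1 IBB flanked by EYFP and cerulean), 50 nM, with compound 5 min, then 0.125 microM importin beta in PBS, 1 mM DTT, 0.02% Tween-20, 0.1% BSA. CFP/YFP ratio read after 45 min at room temperature; pre-read flags interference.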
* marks the source's active call; other numbers are inactive results; ? = inconclusive; / = no result given. A portion of the library. The share of hits here may be higher or lower than overall.

SMILES	Rango dissoc inh	miR-21 reporter	GLA inh pH 4.5	Rango complex inh
c1cncc(-c2ccc3[nH]ccc3c2)c1	-1%	/	/	3.1%
CCc1nnc2c(N(C)S(=O)(=O)c3ccc(C)cc3)nc3ccccc3n12	9%	0%	/	-0.5%
Cc1c(Cc2ccccc2)c(=O)oc2cc(OCC(=O)c3ccccc3)ccc12	-11%	-3%	10	?
COc1cccc2c1Oc1ncccc1N(C(=O)CCC(=O)NCc1ccc(F)cc1)C2	30%	-2%	/	-0.2%
O=C(Cn1cc(COc2c(F)c(F)cc(F)c2F)nn1)c1ccc(O)cc1	0%	/	/	-0.4%
CCn1cc(C(=O)N2CCOCC2)c(=O)c2cc(S(=O)(=O)N(C)C)ccc21	-18%	-1%	-2	-2.0%
C/C(=N\NC(=O)c1ccc(Cn2cc([N+](=O)[O-])cn2)o1)c1cccc(NC(=O)C(C)C)c1	3%	-14%	11	0.3%
O=C(NC(CSSCC(NC(=O)c1ccccc1)C(=O)O)C(=O)O)c1ccccc1 (stereo unspecified)	-7%	-1%	8	-3.6%
Cc1ccc(NC(=O)CCNC(=O)c2ccc([N+](=O)[O-])cc2)cc1S(=O)(=O)N1CCOCC1	-17%	/	/	-2.8%
O=C(COC(=O)c1ccc(Cl)c(S(=O)(=O)N2CCCCC2)c1)NCC1CCCO1 (stereo unspecified)	-9%	-1%	-10	-0.2%
COc1ccc(NC(=O)CN(C)C(=O)CNC(=O)c2ccc3ccccc3c2)cc1	-8%	/	/	-0.8%
N=C(N)SCC1=CCS(=O)(=O)C1	-6%	0%	1	1.3%
COc1ccccc1OCC(=O)NNC(=O)Nc1ccc(Cl)cc1	-7%	22%	-1	2.2%
COc1ccccc1CNS(=O)(=O)c1c(C(=O)N2CCCC2)c(C)n(C)c1C	25%	0%	/	3.2%
COc1ccc(-c2nnc(SCC(=O)Nc3cc(C)on3)o2)cc1	-7%	-24%	8	1.9%
COc1cc(OC)cc(C(=O)NCc2nc(-c3ccccc3)no2)c1	5%	1%	-4	0.9%
CC1=CC(=O)C=C(C)C1=NOc1ccccc1[N+](=O)[O-]	-10%	21%	8	-1.0%
N/C(=N\S(=O)(=O)c1cc(C(F)(F)F)cc(C(F)(F)F)c1)c1ccc(Cl)cc1	37%	28%	-21	?
Cc1cccc(OCCNS(=O)(=O)c2ccc(Cl)cc2)c1	25%	/	/	6.1%
O=C(CSc1nc(-c2ccco2)cc(C(F)(F)F)n1)Nc1ccc2c(c1)CCC2	-12%	12%	-4	?
O=C(Nc1cccnc1)c1cc(F)cc(F)c1	3%	-17%	7	5.6%
COc1cc(O)c(C(CCN2CCOCC2)c2cc(OC)c(OC)c(OC)c2)c(OC)c1 (stereo unspecified)	0%	-3%	1	-5.6%
CN(C)S(=O)(=O)c1ccc(N)c([N+](=O)[O-])c1	10%	-12%	-6	-2.3%
C/C=C/C(=O)OCC(=O)Nc1cc(OC)c([N+](=O)[O-])cc1C	16%	4%	4	-3.2%
Cc1ccc(CCN2C(=O)CCC2(C)C(=O)NCc2cccnc2)cc1 (stereo unspecified)	8%	1%	8	2.0%
COc1cccc(-n2nc(-c3ccnn3-c3ccccc3)c(=O)n(C)c2=O)c1	-1%	-3%	4	-1.0%
Nc1nnc(SCC(=O)Nc2ccc(N3CCOCC3)c(Cl)c2)s1	-9%	4%	/	3.3%
COc1cc(C=O)cc(Cl)c1OC(=O)N1CCOCC1	8%	-2%	/	-1.5%
Oc1ccc(NC(=S)N=Nc2c(O)[nH]c3ccc(Br)cc23)cc1	28%	27%	-1	-0.9%
Cc1ccc(-n2c(C3CC3c3ccc(Cl)cc3)n[nH]c2=S)cc1 (stereo unspecified)	-3%	-6%	-28	-1.5%

Random excerpt: two records from the list
SMILES	Rango dissoc inh	miR-21 reporter	GLA inh pH 4.5	Rango complex inh
O=C(NC(CSSCC(NC(=O)c1ccccc1)C(=O)O)C(=O)O)c1ccccc1 (stereo unspecified)	-7%	-1%	8	-3.6%
O=C(Nc1cccnc1)c1cc(F)cc(F)c1	3%	-17%	7	5.6%

Continuation:
SMILES	Rango dissoc inh	miR-21 reporter	GLA inh pH 4.5	Rango complex inh
CCOc1nc(Nc2ccc(OC)c(Cl)c2)nc(N2CCN(c3ccc(OC)cc3)CC2)n1	3%	3%	-9	-3.4%
O=C(COc1ccc(S(=O)(=O)N2CCCC2)cc1)Nc1ccc2c(c1)OCCO2	-14%	-12%	1	-1.8%
COc1ccc(S(=O)(=O)Nc2cccc(N(C)S(C)(=O)=O)c2)cc1C	5%	12%	-4	0.2%
CC(C)CCNC(=O)C1CC(c2ccccc2[N+](=O)[O-])=NO1 (stereo unspecified)	-15%	/	/	2.4%
COc1ccc(N(CC(=O)Nc2cc(OC)ccc2OC)S(C)(=O)=O)cc1	-2%	-13%	3	3.8%
COc1ccccc1NC(=S)NC(=O)c1ccc(-c2ccc(Cl)cc2)o1	10%	-11%	2	0.0%
OCCN1CCN(CC(O)C(F)(F)F)CC1 (stereo unspecified)	-3%	4%	2	-0.8%
CCN(CC)Cc1c(C(=O)N/N=C/c2cccc(OCc3ccc(F)cc3)c2)nnn1-c1nonc1N	8%	-3%	/	7.2%
COc1ccc(OC)c(NC(=O)COC(=O)/C=C/c2ccco2)c1	1%	/	/	-0.2%
COc1cc(CC(NC(C)=O)C(=O)NC2CCN(S(=O)(=O)c3ccc(NC(C)=O)cc3)CC2)cc(OC)c1 (stereo unspecified)	9%	1%	/	1.9%
O=C(N/N=C/c1cccc(F)c1)NC1CCCCC1	22%	-65%	1	0.0%
O=C(NC1CCCCC1)c1sc(N2CCOCC2)nc1-c1ccccc1	-1%	0%	0	3.9%
CCC1(c2ccccc2)NC(=O)N(CC(=O)Nc2cc(Cl)ccc2N2CCOCC2)C1=O (stereo unspecified)	-1%	/	/	-1.0%
COc1ccccc1NC(=O)CSc1nc2ccccc2cc1Cc1ccccc1	5%	-2%	-6	0.1%
CC(NC(=O)c1cccc(S(=O)(=O)N2CCc3ccccc3C2)c1)c1ccco1 (stereo unspecified)	-12%	/	/	-0.1%
Nc1nsc2ccccc12	13%	30%	7	2.6%
COc1ccc(N2CCN(c3oc(COc4ccccc4)nc3C#N)CC2)cc1	-1%	-11%	-15	5.7%
C=CCn1c(=S)[nH]c2cc(C(=O)Nc3ccc(F)cc3)ccc2c1=O	-10%	0%	/	-0.1%
COc1ccccc1Nc1nc(NCC2CCCO2)c2ccccc2n1 (stereo unspecified)	23%	0%	1	-2.4%
Cc1ccc(C(=O)N[C@H](C(=O)OCC(=O)c2ccc[nH]2)C(C)C)cc1	3%	-3%	7	-0.5%
N#Cc1ccc(OCC(=O)N/N=C/C2CC=CCC2)cc1 (stereo unspecified)	-3%	-2%	-4	-0.7%
COC(=O)CSc1cc([N+](=O)[O-])cc2c1c(C1OCCO1)nn2-c1ccccc1	1%	0%	-6	0.0%
O=C(NCC(=O)N1CCN(C(=O)c2ccco2)CC1)c1ccccc1	-2%	-20%	/	-0.1%
CC(NC(=O)NC(=O)c1cccc(Cl)c1)c1ccccc1 (stereo unspecified)	-2%	-3%	/	0.5%
Nn1c(SCC(=O)NCc2ccc3c(c2)OCO3)nnc1C(F)(F)F	-7%	/	/	2.3%
Clc1ccc(-c2ccccc2)cn1	0%	/	/	-0.2%
O=C(Nc1ccccc1C(=O)N1CCCCC1)c1ccc(Cl)cc1Cl	-8%	3%	/	?
COc1ccc(C(=O)NNC(=O)C(=O)/C=C(\O)c2ccc(C)cc2)cc1	-21%	0%	/	?
O=C(O)c1ccccc1-c1ccccc1C(=O)Nc1cccc(O)c1	1%	1%	0	3.6%
CCCCCN(C(=O)CN(C)Cc1ccc(OC)cc1OC)c1c(N)n(CCCC)c(=O)[nH]c1=O	-3%	1%	2	-0.6%

Continued; the last 4 above are carried over.
SMILES	Rango dissoc inh	miR-21 reporter	GLA inh pH 4.5	Rango complex inh
O=C(Nc1ccccc1C(=O)N1CCCCC1)c1ccc(Cl)cc1Cl	-8%	3%	/	?
COc1ccc(C(=O)NNC(=O)C(=O)/C=C(\O)c2ccc(C)cc2)cc1	-21%	0%	/	?
O=C(O)c1ccccc1-c1ccccc1C(=O)Nc1cccc(O)c1	1%	1%	0	3.6%
CCCCCN(C(=O)CN(C)Cc1ccc(OC)cc1OC)c1c(N)n(CCCC)c(=O)[nH]c1=O	-3%	1%	2	-0.6%
Cc1nn(C)c(Cl)c1S(=O)(=O)N1CCC(CO)(CCc2ccccc2)CC1	-8%	8%	-7	?
O=C(N/N=C\c1ccc(F)cc1)c1csnn1	-4%	-24%	-3	-1.3%
COc1ccc2c(=O)c(-c3nc(C)cs3)coc2c1	2%	-46%	-4	-6.5%
CCO[C@H]1OC(C(=O)NCc2nc3ccccc3[nH]2)=C[C@@H](c2ccc(Br)cc2)[C@@H]1CCCO	-3%	/	/	0.0%
COc1ccc(NC(=O)CCSc2ccc(C)cc2)cc1S(=O)(=O)Nc1ccccc1Cl	6%	12%	-10	-4.5%
COc1ccc(OC)c(Nc2ncnc3sc(-c4ccccc4)cc23)c1	-15%	-8%	-1	?
COc1cccc(/C=N/NC(=O)c2cnccn2)c1OC	0%	-7%	-1	-1.8%
COc1ccc(NC(=O)Nc2cccc3c2O[C@@H](CN(C)CC2CCCCC2)[C@@H](C)CN([C@H](C)CO)C3=O)cc1	-3%	/	/	2.1%
O=c1c2c3c(sc2n2c(=S)[nH]nc2n1-c1ccccc1)CCC3	2%	0%	5	-1.2%
CSc1nc(C)cc(-n2cc(F)c(=O)[nH]c2=O)n1	-3%	-4%	-5	-3.6%
COc1ccc(Nc2nc(NN)nc(C)c2[N+](=O)[O-])cc1	-17%	1%	-11	2.5%
O=C1NC[C@@H](Cc2cccc3ccccc23)N(CCc2cc(C(F)(F)F)cc(C(F)(F)F)c2)C1=O	-1%	-1%	-3	6.8%
CC1CCC(NC(=O)CN2C(=O)COc3ccc(S(=O)(=O)N4CCCC4)cc32)CC1 (stereo unspecified)	/	-3%	9	/
COc1ccc(OC)c(CN2CCCC(CO)C2)c1 (stereo unspecified)	10%	0%	1	-0.2%
CN(C(=O)c1cnccn1)c1nnc(-c2cnccn2)s1	-3%	0%	0	3.7%
CC1CN(C(=O)CCC(=O)NCc2ccc(F)cc2)c2ccccc2S1 (stereo unspecified)	-11%	-1%	/	5.1%
CCc1cccc2c(SCC(=O)NCC3CCCO3)nc(-c3ccc(F)cc3)nc12 (stereo unspecified)	-2%	-9%	-3	-0.2%
O=C(NC1CCCC1)c1cc(-c2cccc(Cl)c2)on1	0%	-85%	/	-4.3%
CN(C)C(CNC(=O)c1c(F)cccc1Cl)c1ccco1 (stereo unspecified)	-8%	-3%	/	-1.6%
O=C(CN1CCC(C(O)(c2ccccc2)c2ccccc2)CC1)Nc1cc(Cl)ccc1Cl	-10%	15%	-10	-0.1%
O=C(N/N=C/c1ccc([N+](=O)[O-])cc1)c1ccc(COc2ccccc2-c2ccccc2)cc1	65%	-7%	-35	0.5%
O=C(Cc1ccc(S(=O)(=O)N2CCCCC2)s1)Nc1ccc(F)c(F)c1	20%	21%	0	-1.5%
Cc1cc(C)cc(NC(=O)c2cccc(C(=O)Nc3cc(C)cc(C)c3)n2)c1	4%	6%	/	-2.6%
CCOP(=O)(OCC)C(Nc1ccccc1)c1ccccc1C(F)(F)F (stereo unspecified)	0%	10%	-23	3.0%
COCCNC(=O)C1CCCN(S(=O)(=O)c2c(C)noc2/C=C/c2cccs2)C1 (stereo unspecified)	13%	-2%	-8	-0.3%
Cc1sc2nc(CN3CCCC3)nc(N3CCN(S(=O)(=O)c4cccs4)CC3)c2c1C	-13%	-16%	3	11%
COc1cccc(NC(=S)N(CCC(C)C)C(C)c2ccncc2)c1 (stereo unspecified)	-6%	-25%	/	2.0%
COC(=O)C1CCN(C(=O)c2cc(OC)c(OC)c(OC)c2)CC1	10%	4%	7	3.3%
